TRPML1 agonist – human mucolipin-1 channel agonism. Q9GZU1. TRPML1-expressing cells, Ca2+ dye fluorescence, FDSS; host cell line not named in the record; reference of the full effect not given here. activation, % (test concentration not listed). 410,000 compounds, 0.12% hits. AID 624414; in the data active = activation above about 50%; inconclusive = about 30% to 50%; inactive = below about 30%; further: 0% is about no effect; the text of the record puts the active cut at 80%
Target sequence (Q9GZU1 whole entry, looked up): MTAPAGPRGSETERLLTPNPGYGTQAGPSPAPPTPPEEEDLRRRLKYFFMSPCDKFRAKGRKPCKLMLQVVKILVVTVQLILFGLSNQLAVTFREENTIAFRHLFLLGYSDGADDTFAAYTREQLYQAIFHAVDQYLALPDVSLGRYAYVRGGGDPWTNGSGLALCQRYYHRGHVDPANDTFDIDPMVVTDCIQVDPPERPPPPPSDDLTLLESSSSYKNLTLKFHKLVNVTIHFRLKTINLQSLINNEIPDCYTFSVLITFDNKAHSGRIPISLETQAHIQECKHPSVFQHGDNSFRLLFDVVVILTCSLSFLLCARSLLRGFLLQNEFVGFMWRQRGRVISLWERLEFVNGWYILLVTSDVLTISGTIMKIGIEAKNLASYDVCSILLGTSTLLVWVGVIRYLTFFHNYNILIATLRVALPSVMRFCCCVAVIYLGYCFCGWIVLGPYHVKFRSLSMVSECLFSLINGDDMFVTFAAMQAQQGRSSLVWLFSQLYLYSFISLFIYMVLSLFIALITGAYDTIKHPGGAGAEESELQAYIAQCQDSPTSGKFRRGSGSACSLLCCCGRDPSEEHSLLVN
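TRPML1-DL cells, Tet-induced overnight (~16 h, 37 degrees C), loaded 45-90 min at room temperature with Ca8 no-wash calcium dye plus quencher. FDSS fluorescence: 10 s baseline, compound pin-transfer, 110 s agonist read, then EC80 54-4 (4uM final) and 110 s antagonist read.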
CtBP-E1A inh – CtBP/E1A binding inhibition | AlphaScreen GST-E1A/His-CtBP binding, 1536-well; active compounds read low; control for the full effect not named in the record | activity change, % (test concentration not listed) | 340,000 compounds, 0.49% hits | AID 651724; in the data active means activity change below about -65%; inconclusive means about -30% to -65%; inactive means above about -30%; further: on the % scale 0 is the no-effect control and ±100 the full control effect
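GST-E1A and His-tagged CtBP (125 nM each as 5X stock) were preincubated with pin-transferred compound for 2 h at 37 °C in the dark, then glutathione donor and nickel acceptor beads were added for 1 h before AlphaScreen reading.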
PINK1 expr mod – PINK1 expression modulation. 410,000 compounds, 0.2% hits. PINK1 immunofluorescence, high-content cytometry, 24 h. Potency, µM (titrated, usually from 76.6 µM), for the others: at the top dose activation (PINK1 increase), usual class: activators; active = well fitted activation curve with a large enough effect; inconclusive = small, poorly fitted or top-dose-only effect; inactive = flat fitted curve, though single readings scatter; cell line not stated here;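 further: potency means the concentration at half of the fitted maximal effect; % of control where 0% means no effect; nearly all actives have a fitted effect of over 65% in size; a mitochondrial uncoupler was the plate control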
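Readout is PINK1 immunofluorescence, quantified alongside mitochondrial, cell and nuclear markers by laser-scanning microplate cytometry. Cells from a stable line were exposed to compound titrations (5 concentrations) for 24 hours, with CCCP controls.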
Six1-Eya2 inh – Six1/Eya2 interaction inhibition. AID 651725. 360,000 compounds, 0.56% hits. AlphaScreen GST-Six1/His-Eya2 binding, biochemical; active compounds read low; control for the full effect not named in the record. Q15475+O00167. activity change, % (no concentration beside the values); in the data active = activity change below about -65%; inconclusive = about -30% to -65%; inactive = above about -30%; further: on the % scale 0 is the no-effect control and ±100 the full control effect
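AlphaScreen luminescence read after one hour at 37 °C in darkness. Pin-transferred compounds met GST-Six1 and His-Eya2 protein (5X stock 250 nM/500 nM) plus glutathione donor and Ni-chelate acceptor beads (5X, 50 ug/mL).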
D2 PAM – potentiates the human D2 dopamine receptor allosterically; 360,000 compounds, 0.23% hits; DiscoveRx D2 beta-arrestin cells, luminescence, 90 min; 100% = 57 uM dopamine signal; potentiation, % (concentration not given with the values); active = potentiation of 50% or more; inconclusive = 30% to 50%; inactive = 30% or less;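 further: tested on top of an EC20 dose of dopamine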
Target sequence (P14416 whole entry, looked up): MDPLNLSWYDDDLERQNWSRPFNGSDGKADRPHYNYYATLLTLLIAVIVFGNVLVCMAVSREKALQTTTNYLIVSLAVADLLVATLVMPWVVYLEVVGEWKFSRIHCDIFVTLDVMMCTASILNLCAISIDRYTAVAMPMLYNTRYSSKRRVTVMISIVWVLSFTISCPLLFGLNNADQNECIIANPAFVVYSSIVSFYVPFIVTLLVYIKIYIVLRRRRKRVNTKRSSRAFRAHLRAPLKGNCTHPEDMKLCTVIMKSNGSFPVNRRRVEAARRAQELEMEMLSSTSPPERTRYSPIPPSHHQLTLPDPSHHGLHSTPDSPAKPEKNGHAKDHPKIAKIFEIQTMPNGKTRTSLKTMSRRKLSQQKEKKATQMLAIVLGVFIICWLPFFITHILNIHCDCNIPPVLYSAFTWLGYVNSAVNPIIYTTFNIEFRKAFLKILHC
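D2 cells co-treated with compound plus 50 nM dopamine (EC20) for 90 min at 37 deg C to detect potentiation. Beta-arrestin recruitment was read as enzyme-fragment luminescence after 1 h at ambient temperature. Full response was set by 57 uM dopamine.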
D2 ag – activates the human D2 dopamine receptor; P14416; 360,000 compounds, 0.084% hits; AID 624465; DiscoveRx PathHunter D2 beta-arrestin, luminescence, 90 min; 100% = 57 uM dopamine signal; activation, % (no concentration beside the values); in the data active = activation above about 40%; inconclusive = about 15% to 40%; inactive = below about 15%; further: compound concentration not given in the record; the text of the record calls up to 30% inactive
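DiscoveRx PathHunter D2 beta-arrestin cells (2,100/well) attached overnight, then compound-stimulated 90 min at 37 C in HBSS/10 mM HEPES/0.1% Tween-20 buffer; beta-galactosidase complementation read by luminescence after 1 h at ambient temperature. Dopamine 57 uM final (EC100) as control.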
Active calls of the source: *; ? = inconclusive; . = not tested or not shown; & = joins results of further samples; [ ] = remark or other dose.

1) Cc1cccc(CN2CCN([C@H]3CS(=O)(=O)N[C@@H]3COCc3ccccc3)CC2)c1
2) CC(C)C[C@H]1CNC(=S)N1C[C@H]1CCCN1C[C@H](CC(C)C)N1C[C@H](Cc2ccc(O)cc2)N(CC2CCCCC2)C1=S
3) CC(=O)Nc1cccc(NC(=O)CSc2nnc3ccc(-c4ccncc4)nn23)c1
4) CC(C)(C)c1ccc(CNc2ccc([N+](=O)[O-])cn2)cc1
5) CC(C)(C)c1ccc(OCC(O)CN2CCc3ccccc3C2)cc1 (stereo unspecified)
Screen / compound no.	1	2	3	4	5
TRPML1 agonist	0.3	-0.5	1.8	3.0	0.5
CtBP-E1A inh	-5	-1	-1	-8	.
PINK1 expr mod	-0.5%	-0.7%	-0.5%	?	1.6%
Six1-Eya2 inh	-9	-3	-7	-14	19
D2 PAM	-14	.	-3	-8	-12
D2 ag	-2.7	.	-5.8	1.1	6.5

6) COc1ccccc1CNC(=O)CCCc1ccccc1
7) COC(=O)c1ccc(NC(=O)C2CCN(C(=O)Nc3ccccc3)CC2)cc1
8) COc1ccc(CN(C(=O)c2oc3ccc(F)cc3c2C)C2CCS(=O)(=O)C2)cc1 (stereo unspecified)
9) COc1ccc(-c2cn3ccsc3n2)cc1
10) CC(C)CNC(=O)C(=O)NCC(c1ccc2c(c1)OCO2)N1CCOCC1 (stereo unspecified)
Screen / compound no.	6	7	8	9	10
TRPML1 agonist	-0.6	1.8	0.5	-1.2	0.7
CtBP-E1A inh	10	-5	0	-7	4
PINK1 expr mod	-1.5%	0.6%	-0.3%	0.7%	0.8%
Six1-Eya2 inh	12	2	-13	0	5
D2 PAM	-19	-4	-19	5	-8
D2 ag	-1.1	2.8	-4.6	-2.9	-0.3

For convenience, some entries already given.
1) Cc1cccc(CN2CCN([C@H]3CS(=O)(=O)N[C@@H]3COCc3ccccc3)CC2)c1
2) CC(C)C[C@H]1CNC(=S)N1C[C@H]1CCCN1C[C@H](CC(C)C)N1C[C@H](Cc2ccc(O)cc2)N(CC2CCCCC2)C1=S
3) CC(=O)Nc1cccc(NC(=O)CSc2nnc3ccc(-c4ccncc4)nn23)c1
4) CC(C)(C)c1ccc(CNc2ccc([N+](=O)[O-])cn2)cc1
5) CC(C)(C)c1ccc(OCC(O)CN2CCc3ccccc3C2)cc1 (stereo unspecified)
6) COc1ccccc1CNC(=O)CCCc1ccccc1
7) COC(=O)c1ccc(NC(=O)C2CCN(C(=O)Nc3ccccc3)CC2)cc1
Screen / compound no.	1	2	3	4	5	6	7
TRPML1 agonist	0.3	-0.5	1.8	3.0	0.5	-0.6	1.8
CtBP-E1A inh	-5	-1	-1	-8	.	10	-5
PINK1 expr mod	-0.5%	-0.7%	-0.5%	?	1.6%	-1.5%	0.6%
Six1-Eya2 inh	-9	-3	-7	-14	19	12	2
D2 PAM	-14	.	-3	-8	-12	-19	-4
D2 ag	-2.7	.	-5.8	1.1	6.5	-1.1	2.8

8) COc1ccc(CN(C(=O)c2oc3ccc(F)cc3c2C)C2CCS(=O)(=O)C2)cc1 (stereo unspecified)
9) COc1ccc(-c2cn3ccsc3n2)cc1
10) CC(C)CNC(=O)C(=O)NCC(c1ccc2c(c1)OCO2)N1CCOCC1 (stereo unspecified)
Screen / compound no.	8	9	10
TRPML1 agonist	0.5	-1.2	0.7
CtBP-E1A inh	0	-7	4
PINK1 expr mod	-0.3%	0.7%	0.8%
Six1-Eya2 inh	-13	0	5
D2 PAM	-19	5	-8
D2 ag	-4.6	-2.9	-0.3

(more compounds)
11) O=c1cc(CN2CCCc3ccccc32)nc2sccn12
12) CCOC(=O)N1CCC(NCCNC(=O)c2ccccc2)CC1
13) CCOC(=O)C1(Cc2cccc(Cl)c2)CCCN(C(=O)c2ccco2)C1 (stereo unspecified)
14) O=C(NCc1cccc2ccccc12)c1cccs1
15) O=C(O)C1C2CCC(C2)C1C(=O)Nc1nc2ccccc2s1 (stereo unspecified)
Screen / compound no.	11	12	13	14	15
TRPML1 agonist	9.2	-0.1&0.2	1.2	-0.6	0.1
CtBP-E1A inh	-19	3&-13	-5	5	3
PINK1 expr mod	-3.8%	0.3%&-1.3%	0.7%	-1.0%	-1.0%
Six1-Eya2 inh	-13	6&15	0	-6	9
D2 PAM	6	-13&-18	-5	-8	-5
D2 ag	0.0	7.4&4.9	2.8	-2.5	0.0

16) OCC[C@@H]1C[C@H](O)[C@@H](O)[C@@]2(OCc3ccccc32)O1
17) COc1ccc(/C=C2\SC(=NCc3ccccc3)N(Cc3ccccc3)C2=O)cc1OC
18) c1ccc(Cn2c(-c3cncs3)nc3ccccc32)cc1
19) O=C(NCC1CCCN(Cc2cccc(C(F)(F)F)c2)C1)c1ccc(F)cc1 (stereo unspecified)
20) CCOc1ccc(C(=O)CSc2nnc(N)s2)cc1
Screen / compound no.	16	17	18	19	20
TRPML1 agonist	-0.4	0.3	1.4	0.7	0.7
CtBP-E1A inh	7	-2	-4	.	3
PINK1 expr mod	1.6%	2.7%	-1.6%	0.5%	0.3%
Six1-Eya2 inh	2	10	0	-17	-2
D2 PAM	-6	4	-3	-18	-10
D2 ag	-3.2	-1.2	-0.1	-1.7	-2.8

21) Cc1ccc(OCCCC(=O)Nc2ccc(S(=O)(=O)Nc3cc(C)on3)cc2)cc1
22) Cc1ccc(NC(=S)c2nc3ccccc3s2)cc1
23) C/C(=N\NS(=O)(=O)c1ccc([N+](=O)[O-])cc1)c1c[nH]c2ccccc12
24) CCOc1cc2[nH]c(=S)n(C(C)C)c(=O)c2cc1OCC
25) CCC1=NC(c2ccc(OC)cc2)N(O)C1(C)C (stereo unspecified)
Screen / compound no.	21	22	23	24	25
TRPML1 agonist	0.7	0.6	0.8	1.4	-1.5
CtBP-E1A inh	1	?	2	-6	2
PINK1 expr mod	-4.0%	6.8%	1.9%	6.7%	-0.8%
Six1-Eya2 inh	-3	-6	2	-11	-4
D2 PAM	1	-8	-5	3	-10
D2 ag	-1.3	-4.4	-2.5	1.4	-3.7

26) COc1cccc(CN2CC(O)=C(c3nc(-c4ccc(Cl)cc4)cs3)C2=N)c1
27) O=C(CN1CCN(S(=O)(=O)c2ccc(Br)cc2)CC1)Nc1ccc2c(c1)OCCO2
28) CCOc1ccccc1/C=C/c1cc(C(=O)O)c2ccccc2n1
29) COC(=O)[C@]12CCCCC=C1N(Cc1cccc3ccccc13)C(=O)[C@H](CC(=O)NCc1ccccc1)C2
30) COc1ccc(OC)c(NC2=NC3(CCCC3)N=C(N)N2)c1
Screen / compound no.	26	27	28	29	30
TRPML1 agonist	-0.7	-0.8	-1.0	0.1	0.7
CtBP-E1A inh	10	-6	8	-10	?
PINK1 expr mod	-0.6%	2.4%	-1.0%	0.3%	7.9%
Six1-Eya2 inh	-3	-9	5	-12	-68*
D2 PAM	-25	11	-9	.	-42
D2 ag	-4.6	1.0	2.3	.	-5.2

31) CC(=O)N1c2ccc(S(=O)(=O)N3CCCCC3)cc2CC1C (stereo unspecified)
32) c1ccc(CN2CCN(CCOCCOc3ccc4c(c3)CCC4)CC2)cc1
33) CCOC(=O)c1c(-c2ccccc2)csc1NC(=O)/C(C#N)=C/c1ccc(OC)c(OC)c1
34) O=C(c1cccc(F)c1)N1CCC(O)(c2cccnc2)CC1
35) CCCCCCCC(=O)N/N=C(\C)c1ccc(O)cc1O
Screen / compound no.	31	32	33	34	35
TRPML1 agonist	0.5	-0.4	-0.1	-0.5	57*
CtBP-E1A inh	-17	0	4	9	-2
PINK1 expr mod	0.0%	-0.8%	10%	-5.4%	10%
Six1-Eya2 inh	-11	-18	3	1	-18
D2 PAM	-26	-16	18	-2	-26
D2 ag	-1.2	-4.7	0.1	-1.8	0.6

36) CCCCc1nc2cc(C(=O)N(C)CCc3cn[nH]c3)ccc2o1
37) CC(=O)Oc1ccc(-c2ccc(C(=O)O)cc2)cc1
38) CCN(CC(=O)NCc1ccc(F)cc1)c1ccc(S(C)(=O)=O)cc1[N+](=O)[O-]
39) CCC(C)c1ccccc1NC(=O)COC(=O)c1ccc2c(c1)S(=O)(=O)c1ccccc1C2=O (stereo unspecified)
40) CN(Cc1cnn(C)c1)Cc1nc(COc2ccccc2)no1
Screen / compound no.	36	37	38	39	40
TRPML1 agonist	-0.2	-0.6	-0.1	-0.4	1.7
CtBP-E1A inh	.	9	3	-17	6
PINK1 expr mod	-0.1%	-5.0%	-1.0%	-0.2%	-0.7%
Six1-Eya2 inh	11	6	14	-20	0
D2 PAM	-5	3	-6	27	-8
D2 ag	-4.0	-2.8	-5.8	?	-3.3

41) O=C(Oc1ccc(NC2=C(Cl)C(=O)c3ccccc3C2=O)cc1)c1ccc([N+](=O)[O-])cc1
42) Cc1nc(/N=C(\N)N(C)C)[nH]c(=O)c1C
43) CC(=O)Nc1ccccc1N(C)S(=O)(=O)c1ccc(C)cc1
44) CCc1ccccc1NC(=O)CN1CCN(C(=O)CNC(=O)c2ccc(-c3ccccc3)cc2)CC1
45) CC(C)c1ccc(N2C(=O)CC(NNC(=O)c3cccnc3)C2=O)cc1 (stereo unspecified)
Screen / compound no.	41	42	43	44	45
TRPML1 agonist	0.5	0.8	0.0	1.6	-0.4
CtBP-E1A inh	.	.	5	2	0
PINK1 expr mod	-1.3%	-0.4%	2.9%	3.8%	1.6%
Six1-Eya2 inh	-1	6	0	0	0
D2 PAM	2	8	3	-1	0
D2 ag	3.8	6.2	-1.2	2.4	-6.9

46) Cc1ccc(NC(=O)/C(=C\c2ccco2)NC(=O)c2ccco2)cc1
47) CC(CCOS(N)(=O)=O)c1ccccc1 (stereo unspecified)
48) Cc1cc(=O)oc2c(C)c(OCC(=O)N3CCN(c4ccccc4)CC3)ccc12
49) NC(=O)Nn1c(CCC(=O)O)ccc1-c1ccc(F)cc1
50) O=C1NCCN/C1=C\C(=O)c1ccccc1
Screen / compound no.	46	47	48	49	50
TRPML1 agonist	-0.7	0.4	-0.4	0.2	0.4
CtBP-E1A inh	0	0	-10	5	5
PINK1 expr mod	-3.1%	1.3%	0.9%	0.1%	?
Six1-Eya2 inh	-3	12	-9	-1	6
D2 PAM	-2	-7	2	-10	-8
D2 ag	-1.3	-3.9	0.1	-2.6	1.7

51) C[C@H](CO)N1C[C@H](C)[C@@H](CN(C)S(=O)(=O)c2ccccc2)Oc2ccc(NC(=O)Cc3ccccc3)cc2C1=O
52) CC(NC(=O)CN1C(=O)NC2(CCCC2)C1=O)c1ccc2ccccc2c1 (stereo unspecified)
53) COc1ccc(N2CCN(S(=O)(=O)c3ccc(C(=O)NC4CCCC4)cc3)CC2)cc1
54) O=C(Nc1cccc(Cl)c1N1CCCC1)c1ccc(Br)o1
55) C[C@@H](NCCCn1cnc2c(OCc3ccccc3)ncnc21)c1cccc2ccccc12
56) CC[C@@H](C)[C@@H](C(=O)N1CCNCC1)n1cc(CCC(=O)O)nn1
57) COc1ccccc1-c1nnc(SCC(=O)NCc2c(C)c(Cl)cc(C(C)C)c2O)o1
Screen / compound no.	51	52	53	54	55	56	57
TRPML1 agonist	0.4	-1.6	-0.5	0.5	-0.1	-0.4	2.8
CtBP-E1A inh	-1	.	-4	0	-13	10	-1
PINK1 expr mod	3.0%	0.7%	9.1%[38.3 µM]	9.1%	-1.0%	1.1%	0.0%[38.3 µM]
Six1-Eya2 inh	1	-1	-1	-2	-6	7	-1
D2 PAM	-1	-10	4	-11	.	11	0
D2 ag	-2.8	-2.2	3.6	-1.6	-4.3	-0.4	2.0
